High-throughput results: PubChem, Center for Chemical Genomics, University of Michigan
HIV TAR-Tat – TAR RNA-Tat peptide displacers, HIV-1, primary screen, biochemical, FRET, FAM/TAMRA-labeled Tat; HIV-1 TAR RNA, Tat peptide displacement FRET; stronger effect = higher value; z-score (test concentration not listed); 0.6% of 100,000 active; AID 1259389, 2018;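 note: score is relative to mean and SD of negative controls; some compounds called inactive have numbers as strong as hits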
CDC25B-CDK2 inh – primary biochemical HTRF screen for blockers of M-phase inducer phosphatase 2 binding to CDK2/cyclin A. HTRF CDC25B-CDK2/CyclinA binding, anti-His/anti-Flag; stronger effect = higher value. z-score (concentration not given with the values). 0.72% of 94,000 active;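 note: score is relative to mean and SD of negative controls; strong numbers were not always called active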
An asterisk follows results filed as active; · = not tested or not shown.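 Rule for the calls: active = z-score from 3 up in half or more of its runs; inactive = the rest.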

SMILES | HIV TAR-Tat | CDC25B-CDK2 inh
O=C(c1cnn2c(-c3ccccc3)cc(-c3ccccc3)nc12)N1CCN(c2ncccn2)CC1 | 0.8 | ·
O=C(O)c1cc(N2C(=O)C3C4c5ccccc5C(c5ccccc54)C3C2=O)ccc1Cl (stereo unspecified) | · | -3.7
Fc1ccc(CN2CCc3nc(N4CCN(c5ccccc5F)CC4)ncc3C2)cc1F | 0.21 | ·
Cc1sc2c(c1C)c(=O)n(CCc1ccccc1)c(=O)n2Cc1cc(=O)n2ccccc2n1 | · | 0.46
CCO/C=C1\SC(=S)N(/N=C/c2cccc(Cl)c2)C1=O | · | -1.3
O=C(C1=C(N2CCCCC2)c2ccccc2S1(=O)=O)N1CCOCC1 | 1.1 | ·
CCCn1c(-c2ccc(F)cc2)n[nH]c1=O | · | -1.1
Cc1ccc(Cn2nc(C)c(NC(=O)CCCn3nc([N+](=O)[O-])cc3C)c2C)cc1 | · | -0.58
O=C(O)/C=C\C(=O)NCc1csc2ccccc12 | · | -2.7
O=C(c1cc2c(=O)oc3ccccc3c2s1)N1CCC2(CC1)OCCO2 | · | 0.54
Cc1ccc2nc3c(c(C(=O)O)c2c1)CCCC3 | -0.64 | 0.66
Cc1c(C(=O)N2CCC(C)CC2)c(S(=O)(=O)N(C)Cc2ccco2)c(C)n1C | 1.2 | ·
C=CCn1c(SCc2ccc(C(=O)OC)o2)nc2c([nH]c3ccccc32)c1=O | 0.82 | ·
Nc1c(S(=O)(=O)O)cc(Nc2ccc(Nc3nc(Cl)nc(Nc4ccc(S(=O)(=O)O)cc4)n3)c(S(=O)(=O)O)c2)c2c1C(=O)c1ccccc1C2=O | · | 2.5
Cc1ccc2c(c1)oc(=O)n2C(=O)c1ccco1 | 0.64 | ·
CC1C(=O)Nc2ccc(S(=O)(=O)Nc3ccc(F)cc3F)cc2NC1=O (stereo unspecified) | · | -2
COc1ccc(-c2noc(=O)[nH]2)cc1OC | 2.4 | -1.5
COc1cccc(CNC(c2ccccc2)c2nnc(-c3ccccc3)o2)c1 (stereo unspecified) | 1 | 0.15
CCCCP(=O)(CCCC)CCP(=O)(CCCC)CCCC | · | -0.75
CC(C)(C)c1ccc(OCc2cc(=O)n3c4c(sc3n2)CCCC4)cc1 | 0.55 | -0.35
O=C(CSc1nc2ccccc2c(=O)n1Cc1ccc2c(c1)OCO2)N1CCCc2ccccc21 | · | -1.5
O=C(Nc1ccc(Cl)cc1)c1ccccc1[N+](=O)[O-] | · | -0.08
CC1CCCC(NC(=O)CCCC2=NS(=O)(=O)c3ccccc3N2)C1C (stereo unspecified) | 0.57 | ·
COc1ccc(Nc2nc(NC3CCCCC3)nc3c2cnn3C)cc1Cl | 0.94 | ·
N#C/C(=N\Nc1ccc(Cl)cc1)C(N)=S | · | -1.6
COc1ccc(SCc2cc(=O)n3cc(C)sc3n2)cc1 | 2.7 | -2.3
O=c1[nH]nc(-c2ncc[nH]2)c2ccccc12 | 1.5 | -0.34
Cc1ccc(S(=O)(=O)c2cn(C)c3cc(N4CCCC(C)C4)c(F)cc3c2=O)c(C)c1 (stereo unspecified) | 0.5 | ·
CCN1CCN(C(=O)c2oc3ccccc3c2NC(=O)c2ccco2)CC1 | 1.3 | ·
CC(=O)NC1=NC(=O)/C(=C/c2cc(C)n(-c3cccc(C(=O)O)c3)c2C)S1 | · | -2.5
O=C(Cn1ncc2c1-c1ccccc1OC2)Nc1ccccc1F | -0.1 | -0.48
CC(C)Cn1c(=O)c2sccc2n2c(CCCC(=O)N3CCC(N4CCCCC4)CC3)nnc12 | 1.1 | ·
CCCn1nnc2c(=O)oc3ccccc3c21 | 0.96 | -1.4
COc1cc(OC)c(NC2c3ncccc3C(=O)N2Cc2ccco2)cc1Cl (stereo unspecified) | 0.97 | ·
Cc1c(C(=O)C(=O)Nc2ccc3c(c2)OCCO3)c2ccccc2n1C | -0.21 | -1
Nc1nonc1-c1nc2ccccc2n1CC(=O)N1CCN(c2ccc(F)cc2)CC1 | -1 | -0.56
COC(=O)C1=C(NNc2ncc(Cl)cc2C(F)(F)F)CSC1 | · | 0.32
Cc1ccc(NS(=O)(=O)c2c(C)noc2C)cc1F | 0.86 | -0.8
Cc1ccc(Cl)cc1Nc1nn2c(=O)c3ccc(C(=O)NC4CC4)cc3nc2s1 | -0.14 | ·
Cc1cccn2c(=O)c(C(=O)NC3CCCC3)c(O)nc12 | -0.73 | -0.79
CCOc1ccc(S(=O)(=O)c2cn(C)c3ccccc3c2=O)cc1 | 2.9 | -1.2
CCCCCc1c(C)[nH]c2nc3ccccc3n2c1=O | 0.26 | 3.8
O=C(Cn1c(C(=O)O)cc2ccccc21)c1ccccc1 | 1.6 | -0.63
O=C(NCc1ccncc1)C(=O)Nc1c2c(nn1-c1ccccc1)CSC2 | 1.6 | ·
Cc1cc(C)c2c(=O)cc(C(=O)Nc3sc4c(c3C(=O)NCC3CCCO3)CCCC4)oc2c1 (stereo unspecified) | 0.36 | -0.59

Arranged by heavy-atom count (rising): 3 of the compounds above.
SMILES | HIV TAR-Tat | CDC25B-CDK2 inh
COC(=O)C1=C(NNc2ncc(Cl)cc2C(F)(F)F)CSC1 | · | 0.32
O=C(NCc1ccncc1)C(=O)Nc1c2c(nn1-c1ccccc1)CSC2 | 1.6 | ·
Cc1ccc(Cl)cc1Nc1nn2c(=O)c3ccc(C(=O)NC4CC4)cc3nc2s1 | -0.14 | ·

Additional entries follow.
SMILES | HIV TAR-Tat | CDC25B-CDK2 inh
CCOC(=O)/C(N=Nc1ccc(Br)cc1)=C(/O)CSC#N | · | -2
Cc1cc2nc(CSc3ncn[nH]3)cc(=O)n2o1 | -0.27 | ·
C=CCOc1cccc(C2c3c(oc4ccc(Cl)cc4c3=O)C(=O)N2CCCN2CCOCC2)c1 (stereo unspecified) | 0.82 | -1.9
Cc1ccc(C2(C(F)(F)F)NC(=O)N3CCCN=C3S2)cc1 (stereo unspecified) | · | -1.2
O=C(O)c1ccc(N2C(=O)CC(N3CCOCC3)C2=O)cc1 (stereo unspecified) | 2.7 | -1.4
COc1ccc2c(c1)c(C(C)=O)c(C)n2-c1ccccc1 | · | -1.8
O=c1cc(-c2cc(O)c(O)c([C@@H]3O[C@H](CO)[C@@H](O)[C@H](O)[C@H]3O)c2)oc2cc(O[C@@H]3O[C@H](CO)[C@@H](O)[C@H](O)[C@H]3O)cc(O)c12 | 25* | ·
CCC(=O)N1c2ccc(S(=O)(=O)N(C)c3ccc(Br)cc3)cc2CC1C (stereo unspecified) | -0.01 | ·
O=C(c1cc2ccc3cccnc3c2[nH]1)N1CCN(c2ccc(Cl)cc2)CC1 | 2 | ·
Cc1cc(NC(=O)C2=Cc3sc4c(c3CS2)CCCC4)no1 | -0.68 | ·
CCc1nnc2c(Nc3ccc4c(c3)OCCO4)nc3ccccc3n12 | -0.13 | ·
COc1cc2ccccc2cc1C(=O)Nc1ccc(Cl)c(-c2nc3ccccc3o2)c1 | · | -10
CCOC(=O)c1nc(Nc2ccc(Br)cc2C)c2c(C)noc2n1 | 0.82 | ·
O=C(COCc1cc(-c2cccs2)on1)Nc1ccccc1Br | 10* | ·
Cc1ccc(C(=O)c2oc3ccc(N)cc3c2C)cc1 | -2.5 | ·
CC1(C)CC(C2N3CC4(C)CN2CC(C)(C3)C4=O)CCO1 (stereo unspecified) | 0.39 | 1.1
CCCCN(C)S(=O)(=O)c1ccc2c(c1)CCCC(=O)N2 | -0.09 | ·
CCN(CC)CCCNc1ncnc2c1cnn2-c1cccc(Cl)c1 | 1.6 | ·
Cc1noc2ncnc(N3CCC(C(=O)NCCC(C)C)CC3)c12 | 2.4 | ·
COc1ccc(CCNC(=S)NC2CC3C=CC2C3)cc1OC (stereo unspecified) | · | -0.99
COc1ccc2c(c1)-c1cc(Cl)ccc1S(=O)(=O)N2 | · | -3.9
CCn1cc(CCC(=O)NC(C)C)c2ccccc21 | -0.21 | ·
Cn1c(=O)c2c(ncn2CC(=O)N2CCN(c3ccc(F)cc3)CC2)n(C)c1=O | · | 0.98
O=C1CC(c2cccs2)CC2=C1C(c1ccc3ccccc3c1)Nc1ccccc1N2 (stereo unspecified) | · | -3.8
CN(C)CCNc1ncnc2scc(-c3ccc(F)cc3)c12 | -1.2 | ·
COCCOC(=O)C1=C(C)NC2=C(C(=O)CC(c3cccs3)C2)C1c1ccc(OC(C)=O)cc1 (stereo unspecified) | 0.91 | -1.5
CC(C)Cn1c(=O)c2sccc2n2c(CCCC(=O)NCc3ccco3)nnc12 | 0.77 | ·
N#Cc1cc2c(nc1SCC(=O)Nc1ccc(Br)cc1)CCCC2 | 1.9 | -1.4
CN(c1ccccc1)C(CNS(=O)(=O)c1ccc(Cl)cc1)c1ccccc1 (stereo unspecified) | 3.1 | -2
O=C(c1ccc(F)cc1)N1CCCC1c1cccs1 (stereo unspecified) | 0.99 | 1.7
COc1ccc(N2C(=O)c3cccnc3C2Nc2cc(Cl)ccc2OC)cc1 (stereo unspecified) | 1.2 | ·
Cc1ccc(S(C)(=O)=NS(=O)(=O)c2sc3ccc(Cl)cc3c2C)cc1 (stereo unspecified) | · | -1
O=c1[nH]c(SCCOc2ccccc2)nc2c1CCC2 | 0.5 | -1.8
O=c1cc(CN2CCCCC2)nc2nc(-c3ccc(Cl)cc3)[nH]n12 | 1.1 | -0.73
C=CCn1c(SCC(=O)O)nc2sc3c(c2c1=O)CC(C)(C)OC3 | 0.39 | -0.37
CCOC(=O)CSc1nc2sc3c(c2c(=O)n1CC)CC(C)(C)OC3 | · | -3.5
CC1CCN(S(=O)(=O)c2ccc3c(c2)NC(=O)C(C)CS3)CC1 (stereo unspecified) | 0.21 | ·
CSC(=S)OCC12CC3CC(CC(C3)C1)C2 | · | -2.1
O=C(Nc1ccc(F)cc1)N1CCC2(CC1)Nc1cc(F)ccc1-n1cccc12 | -0.59 | ·
Cc1cc(=O)n2nc(N3CCCC(C(=O)NCCCN4CCCCC4)C3)sc2n1 (stereo unspecified) | 1.3 | -1.3
COc1ccc2ncc(S(=O)(=O)c3ccccc3)c(Nc3ccc(F)cc3)c2c1 | 1.4 | -1.6
O=C(CN1C(=O)c2ccccc2Sc2ncccc21)N1CCN(C2CCCCC2)CC1 | 2.1 | ·
Cc1ccc(S(=O)(=O)Nc2cc(C)cc(C)c2)cc1 | -0.41 | -1.9
O=C(O)CCC(=O)NNc1nc(-c2ccccc2)c2cc(Br)ccc2n1 | · | -2.2
O=C1CCSc2ccc(S(=O)(=O)N3CCC(CN4CCc5ccccc5C4)CC3)cc2N1 | 0.29 | ·

Single entries from above.
O=C(CN1C(=O)c2ccccc2Sc2ncccc21)N1CCN(C2CCCCC2)CC1 – HIV TAR-Tat = 2.1
O=c1cc(CN2CCCCC2)nc2nc(-c3ccc(Cl)cc3)[nH]n12 – HIV TAR-Tat = 1.1
O=c1[nH]c(SCCOc2ccccc2)nc2c1CCC2 – CDC25B-CDK2 inh = -1.8
COc1ccc(N2C(=O)c3cccnc3C2Nc2cc(Cl)ccc2OC)cc1 (stereo unspecified) – HIV TAR-Tat = 1.2

Next section:
SMILES | HIV TAR-Tat | CDC25B-CDK2 inh
Oc1cccc(Nc2nc(-c3cccnc3)cs2)c1 | 2.8 | -1.4
O=c1[nH]c2ccc(NCc3ccc(-c4ccc(F)cc4)o3)cc2[nH]1 | -1.9 | 5.3*
O=c1c(-c2ccccc2)coc2cc(OCc3ccc(F)cc3)ccc12 | 0.11 | -0.53
CCCOc1ccc(COC2C(C(O)CO)OC3OC(C)(C)OC32)cc1 (stereo unspecified) | · | -1.6
CC(C)NC(=O)N1CCC(N2CCN(Cc3ccccn3)C(=O)C2=O)CC1 | 1.7 | ·
COc1ccc(-c2nn3c(=O)cc(COc4cc(C)cc(C)c4)nc3s2)cc1 | 0.24 | -0.4
Clc1ccc(Nc2nc(-c3ccncc3)cs2)cc1 | 2.5 | -2
CCN1CCC(N(Cc2cccs2)C(=O)Nc2ccc(Br)cc2)CC1 | 0.71 | ·
O=C(CSc1nccc(C(F)(F)F)n1)Nc1ccc(Br)cc1 | · | -0.58
CCOC(=O)c1c(C)[nH]c(CN(Cc2ccc(C)cc2)S(=O)(=O)c2cn(C)cn2)c1C | 0.55 | ·
Cc1cc(Cl)ccc1OCC(O)CN1CCCCC1C (stereo unspecified) | · | -0.43
CCOC(=O)C(C)NC(=O)c1c2c(nc3ccccc13)C(=O)N(C1CCCCC1)C2 (stereo unspecified) | 0.72 | ·
O=S(=O)(c1ccc(F)cc1)N1CCN(Cc2ccc3nccnc3c2)CC1 | 0.35 | -2.2
O=S(=O)(c1ccc(Br)cc1)N1CCCC(c2nc(-c3ccccn3)no2)C1 (stereo unspecified) | 1.6 | ·
O=C(O)C1CCCN(c2ncccn2)C1 (stereo unspecified) | 0.71 | 0.35
CCOC(=O)c1sc(NC(=O)c2cc(=O)c3cc(C)c(C)cc3o2)c(C(=O)OCC)c1C | -2.3 | -2.8
Cc1c2c(nc3c(C(=O)NC4CCCCCCC4)cnn13)CCCC2 | · | -1.2
Cc1ccc2oc(=O)c3cnn(CC(=O)N(CCC(C)C)Cc4ccco4)c3c2c1 | 2.9 | -1.5

Shown tab-delimited: entries from further up.
molecule	HIV TAR-Tat	CDC25B-CDK2 inh
Cc1ccc2c(c1)oc(=O)n2C(=O)c1ccco1	0.64	·
CCn1cc(CCC(=O)NC(C)C)c2ccccc21	-0.21	·
